Assay outcomes as filed in PubChem.
HSD17B inhib: blocks hydroxysteroid 17-beta dehydrogenase activity; 75,000 tested, 7.6% active; recombinant HSD17B10, NADH fluorescence kinetic; many of its hits are not listed in these tables; Q99714; Potency, µM (highest dose often 57.1 µM), without a hit: at the highest dose activity change, negative = inhibition, most hits filed as inhibitors; AID 893; active = well fitted inhibition curve with a large enough effect; inconclusive = small, poorly fitted or top-dose-only effect; inactive = no such curve, though single readings can be large or run the other way;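 note: the protocol describes HADH2 (HSD17B10) and not the HSD17B4 of the title; nearly all actives have a fitted effect of over 70% in size; most hits overshoot -100% by far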
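20 nM HADH2, pH 9.0 Tris/Tween; cpd preinc 15 min RT; start w/ 1 mM NAD+ + 90 uM b-hydroxybutyryl-CoA; kinetic fluor ex360/em450 q30s x 4 min; delta last-first.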
* marks the source's active call; other numbers are inactive results; ? = inconclusive; & = joins results of further samples; [ ] = remark or other dose. % is set by controls: 0 for no effect and ±100 for the full control effect; potency is the fitted concentration of half-maximal effect. An excerpt; rates above refer to the full screens.

SMILES | HSD17B inhib
COc1ccc(S(=O)(=O)N2CCCN(CC(=O)Nc3ccc(OC)c(Cl)c3)CC2)cc1 | -3%
COC(=O)[C@@H]1C[C@H]1[C@@H](NC(=O)c1ccccc1)c1ccccc1 | -6%
CC(C)CC(=O)Nc1ccccc1N1CCOCC1 | 5%
CCC(c1nnnn1Cc1ccc2c(c1)OCO2)N1CCN(c2ccccc2)CC1 (stereo not drawn) | -2%
O=C(Nc1ccc2nc(-c3ccco3)[nH]c2c1)c1ccco1 | -10%
O=C(CCN1CCc2ccccc2C1)Nc1ccccc1 | 1%
O=C(CSc1ncccn1)c1ccccc1Br | -9%
CC(N)C(O)c1cccc(O)c1 (stereo not drawn) | -1%
CCOC(=O)c1ccc(NC(=O)CCc2ccc(C)o2)cc1 | -1%
CCn1c(/C=N/n2cnnc2)nc2ccccc21 | 25µM*
Cn1c(SCC(=O)c2ccc(F)cc2)nc2cccnc21 | -12%
Cc1ccc2cc(C(c3nnnn3C3CCCC3)N(Cc3cccnc3)Cc3ccco3)c(=O)[nH]c2c1 (stereo not drawn) | 0%
CCOC(=O)C1=C(C)NC(=O)CC1c1cc2c(cc1Br)OCO2 (stereo not drawn) | 6%
O=C(O)/C(=C\c1ccccc1)c1ccccc1 | 1%[11.4 µM]
CC(=O)N1CCC[C@@]2(CCN(C(=O)Nc3cccc(C#N)c3)C2)C1 | 2%
Cc1ccccc1C(=O)Nc1ccc(S(=O)(=O)N2CCN(C)CC2)cc1 | 9%
Cc1cc(NC(=O)CSc2nc(C(C)C)nc3c2c(=O)n(C)c(=O)n3C)no1 | 9%
Nc1nc2n(n1)C(c1ccc(Cl)cc1)CC(c1ccc(F)cc1)N2 (stereo not drawn) | 4%
COc1ccc(S(=O)(=O)Cc2ccc(C(=O)NCc3cccnc3)o2)cc1 | -4%
O=C(c1cc2nc(-c3ccccc3)cc(C(F)(F)F)n2n1)N1CCCC1 | 4%
Oc1ccc(-c2nnc(-c3ccc(O)cc3)nn2)cc1 | 1%
CCc1c(C(=O)Nc2ncn(Cc3cccc(C)c3)n2)csc1C | 1%
COC(=O)c1cc(NC(=O)C2COc3ccccc3O2)cc(C(=O)OC)c1 (stereo not drawn) | ?
O=S1(=O)CC(NCc2ccccc2)C(Nc2ccccc2)C1 (stereo not drawn) | 13%
CCN1C(=O)CSC1=NC1C2CC3CC(C2)CC1C3 (stereo not drawn) | -6%

Four structures out of the list, sorted by length of the SMILES, ascending:
SMILES | HSD17B inhib
O=C(CSc1ncccn1)c1ccccc1Br | -9%
CC(C)CC(=O)Nc1ccccc1N1CCOCC1 | 5%
CCn1c(/C=N/n2cnnc2)nc2ccccc21 | 25µM*
Cc1ccc2cc(C(c3nnnn3C3CCCC3)N(Cc3cccnc3)Cc3ccco3)c(=O)[nH]c2c1 (stereo not drawn) | 0%

Next entries.
SMILES | HSD17B inhib
Cc1cccc(NC(=O)CSc2nnc(-c3ccccc3)n2N)c1 | 0%
COC(=O)CCN(C(C)=O)c1ccc(N)cc1 | -5%
CCN1CCN(C(=O)CN(Cc2ccccc2)S(C)(=O)=O)CC1 | 0%
CCN1CCN(Cc2c(O)ccc3c(=O)c(-c4ccc(OC)c(OC)c4)c(C(F)(F)F)oc23)CC1 | -1%
Oc1c(C(c2cccs2)N2CCOCC2)sc2ncnn12 (stereo not drawn) | ?
COc1cccc(NC(=O)CSc2nnc(-c3cccs3)n2C)c1 | -20%
COc1ccc(O[C@H]2C=C[C@@H](c3ccccc3)O[C@H]2COC(=O)CC/C(C)=N/OCC[C@@H]2C=C[C@H](OC(C)=O)[C@H](COC(C)=O)O2)cc1 | -2%[11.4 µM]
O=C(Cc1coc(-c2ccc(F)cc2)n1)NC1CCCCC1 | 1%
c1ccc2nc(C3=NCCN3)ccc2c1 | 3%&-4%
Cn1c(N2CCC(C(N)=O)CC2)nc2c1c(=O)n(Cc1ccc(Br)cc1)c(=O)n2C | -3%
O=C1CC(C2CCCO2)C(=O)N1c1cccc(Cl)c1 (stereo not drawn) | 7%
c1ccc(Cn2nnc3cnccc32)cc1 | 7%
CCN(C(=O)COC(=O)C(Cc1ccccc1)N1C(=O)c2ccccc2C1=O)C1CCS(=O)(=O)C1 (stereo not drawn) | 10%
Cc1ccc(CNC(=O)CCCn2c(=O)c3ccccc3n(CC(=O)NCc3ccco3)c2=O)cc1 | 8%
COC(=O)C1[C@H]2C(=O)N(Cc3cccs3)C[C@]23C=C[C@H]1O3 (stereo partly drawn) | -2%
O=c1c(-c2ccc(Cl)cc2)nc2cnc(Nc3ccccc3)nc2n1C1CC1 | 11%
O=S1(=O)[C@H]([C@H]2CC3c4ccccc4C2c2ccccc23)[C@@H](N2CCCCC2)[C@@H]1c1ccccc1 | 3%[11.4 µM]
CSc1ncc(C(=O)O)n1-c1ccc(F)cc1 | 6%
Cc1cccc(N2C(=O)CC(N(O)c3ccccc3)C2=O)c1 (stereo not drawn) | 7%
CCOC(=O)C1CC=C(Cl)CC1C(=O)Nc1nccs1 (stereo not drawn) | 1%
COc1ccc(C2=NOC(C(=O)NC3CCCCC3)C2)cc1OC (stereo not drawn) | 14%
CN1CCC(n2[nH]c(-c3ccccc3)c(Cc3ccccc3)c2=O)CC1 | 8%[11.4 µM]
O=C(Nc1nc(-c2ccccc2)cs1)c1ccc(Br)o1 | ?
Cc1cccc(N2CCN(C(=O)C3CCCN(S(=O)(=O)c4cnc[nH]4)C3)CC2C)c1 (stereo not drawn) | 4%
Brc1ccc(-c2nc3ccccc3s2)s1 | 32µM*
Continuation:
SMILES | HSD17B inhib
COC(=O)[C@@]1(Cc2ccc(OC)cc2)[C@H]2c3cc(C(=O)N4CCCC4)n(Cc4cc(F)cc5c4OCOC5)c3C[C@H]2CN1C(=O)c1ccccc1 | 14%
O=S1(=O)c2cccc3cccc(c23)N1Cc1ccc(-c2nnco2)cc1 | 32µM*
CN(C)S(=O)(=O)c1ccc2c(c1)nc(CCC(=O)NCC1CCCCC1)n2C | 3%
COC(=O)c1ccc(CSc2ncnc3sc(C)c(C)c23)o1 | 3%
Cc1ccc(NC(=O)CCNS(=O)(=O)c2ccc3c(c2)oc(=O)n3C)cc1 | ?
Cc1cc(C)nc(NC(=O)CSc2nn(C)c(=S)s2)n1 | -9%
CC(=O)Nc1ccc(N/C=C/C(=O)C(C)(C)C)cc1 | -7%
Cc1nc(NCc2ccc3c(c2)OCO3)c2oc3ccccc3c2n1 | -12%
CCNC(=O)CCc1nc(-c2ccc(C(C)(C)C)cc2)no1 | 3%
CCOC(=O)c1sc(NC(=O)c2ccc(C)o2)nc1C | -6%
C1=C(N2CCOCC2)/C(=C/c2nc3ccccc3[nH]2)CC1 | ?
CCOC(=O)N1CCC(NC(=O)c2cc(C(=O)Nc3cccc(OC)c3)ccc2CO)CC1 | -3%
Brc1ccccc1-c1nnc(CSc2nnnn2-c2ccccc2)o1 | -14%
O=C(c1nc2ncccn2n1)N1CCc2ccccc2C1 | 10%
CCCN(CCC)C(=O)CCS(=O)(=O)c1cccc2nsnc12 | -2%
CSc1nc(SCC(=O)NCc2ccco2)c2c3c(sc2n1)CN(C)CC3 | -8%
Cn1c(SCC(=O)NCc2ccco2)nc2ccccc2c1=O | 2%
COc1cc(C(=O)NC2CC3CCCC(C2)N3CC(=O)Nc2ccccc2)cc(OC)c1OC (stereo not drawn) | 5%
Cc1cc(NC(=O)COC(=O)CCCOc2ccc(Cl)cc2C)no1 | 9%
O=C(O)c1ccc(CSCc2ccccc2F)o1 | -19%
O=C(NCCc1c[nH]c2ccccc12)c1cc(S(=O)(=O)N2CCCCC2)ccc1N1CCOCC1 | 8%
Cn1cc(-c2nc3cnc(N4CCNCC4)nc3n(CCc3ccccc3)c2=O)c2ccccc21 | 6%
COc1ccc(O[C@H]2C=C[C@@H](c3ccccc3)O[C@H]2COC(=O)CC/C(C)=N\O[C@@H](C)c2cc(-c3c(C)cc(C)cc3C)no2)cc1 | 2%[11.4 µM]
CCC1CCCCN1C(=O)COc1cc(=O)n(C)c2ccccc12 (stereo not drawn) | -1%
O=C(O)c1cnn2c1NC(c1ccc(F)cc1)CC2C(F)(F)F (stereo not drawn) | -4%
Next part.
SMILES | HSD17B inhib
Cn1nccc1C(=O)Nn1cnnc1 | 4%
COc1ccc(C2=NOC(C(=O)NC(C)(C)C)C2)cc1 (stereo not drawn) | 3%
CCn1c(SCC(=O)Nc2ccc(OCc3ccccc3)cc2)nnc1-c1ccco1 | 5%
Cc1cc(NC(=O)CSc2ccc3nnc(-c4ccccc4)n3n2)no1 | ?
CCn1c(COc2ccc(C)cc2)nnc1SCC(=O)Nc1cc(OC)ccc1OC | 8%
O=C(/C=C\Nc1ccccn1)c1ccccc1 | -4%
CS(=O)(=O)NCc1ccc(C(=O)NCCOc2ccccc2)cc1 | 0%
Cc1sc2ncnc(SCC(=O)NC(=O)NCc3ccco3)c2c1C | -29%
CCCc1cc(C(=O)Nc2nccs2)cs1 | -5%
CCOC(=O)c1cccc(NC(=O)Nc2cc(OC)ccc2OC)c1 | ?
Cc1ccc(S(=O)(=O)C2(S(=O)(=O)c3ccc(C)cc3)CCCC2)cc1 | -2%
CCOC(=O)CSc1nc2sc3c(c2c(=O)[nH]1)CCCC3 | -12%
CCCCCn1c(N2CCN(c3cccc(Cl)c3)CC2)nc2c1c(=O)[nH]c(=O)n2C | 8%
CC(=O)OC[C@H]1O[C@@H](O/N=C2/[C@H]3O[C@@H]3[C@@H](O)[C@H]3[C@H]2CCn2c(=O)n(-c4ccccc4)c(=O)n23)[C@H](OC(C)=O)[C@@H](OC(C)=O)[C@@H]1OC(C)=O | 4%[11.4 µM]
Cc1cc(NC(=O)COC(=O)CCC(=O)c2ccc(F)cc2)no1 | 3%
CCOC(=O)c1cc(-c2ccncc2)nc2c1c(C)nn2-c1ccccn1 | 2%
O=S(=O)(c1ccc(Br)s1)N1CCN(c2ccccc2)CC1 | 25µM*
CC(C)NC(=O)N1CC[C@@]2(CCCN(C(=O)c3cccc(F)c3)C2)C1 | -4%
Cn1ccc(C(=O)OCC(=O)c2ccccc2)n1 | 15%
Cc1ccc(-c2nc3ccccc3[nH]2)cc1NC(=O)c1ccco1 | 6%
CCc1nnc(NC(=O)CCC(=O)N2CCN(C3CCCCC3)CC2)s1 | -4%
CCN1CCN(C(=O)CCCCCn2c(=O)[nH]c3cc(C(=O)OC)ccc3c2=O)CC1 | 32µM*
Cc1c(NC(=O)Nc2cccc(Cl)c2)c(=O)n(-c2ccccc2)n1C | -2%
N=C(N)SCCON1C(=O)c2ccccc2C1=O | 0%[11.4 µM]
CCCCn1c(NCCO)nc2ccccc21 | -1%
The results go on:
SMILES | HSD17B inhib
COc1cc(NC(=O)NCCN2CCN(c3ccc(Cl)cc3)CC2)ccc1C | 12%
COc1cccc(-c2nnc3sc(-c4ccccn4)nn23)c1 | -15%
Cn1c(SCCCC(=O)c2ccccc2)nnc1-c1ccncc1 | 0%
c1ccc(N2CCN(c3nc4cc5c(cc4s3)OCO5)CC2)cc1 | -12%
COC(=O)C(C#N)C(c1cccnc1)c1c(C)[nH][nH]c1=O (stereo not drawn) | -8%
O=C(NCC(=O)N(c1ccc2c(c1)OCO2)C(C(=O)NC1CCCC1)c1cccs1)c1ccco1 (stereo not drawn) | 2%
O=C1C(c2ccccn2)=[N+]([O-])c2ccccc21 | -1%
CCc1c(C)c2ccc(OCC(=O)OC(C)C)c(C)c2oc1=O | 32µM*
CCCCC(=O)Nc1ccc(NC(=O)C2CC2)cn1 | 10%
O=S(=O)(c1cc(C(F)(F)F)ccc1Cl)N1CCCCCC1 | -23%
CC(C)c1c(O)nc(SCC(=O)Nc2ccc3c(c2)CCC3)[nH]c1=O | 1%
CC12CCC(C(=O)NCc3ccco3)(OC1=O)C2(C)C (stereo not drawn) | -4%
CCCn1cnc2cc(NCc3cccc(OC)c3O)ccc21 | 32µM*
O=C(CN1CCCCC1)N1CCN(C(=O)CN2CCCCC2)CC1 | 8%
CCc1nc2nc(C)cc(Nc3cccc(C(F)(F)F)c3)n2n1 | -13%
COc1cccc(CN2CCN(C(=O)c3cccs3)CC2)c1OC | 8%
CCOC(=O)C1=C(C)OC(N)=C(C(=O)OCC)C1c1ccncc1 (stereo not drawn) | 0%
O=C(NCCc1ccccc1)C1c2ccccc2C(=O)N1C1CC1 (stereo not drawn) | 2%
COC(=O)/C=c1\sc2n(c1=O)C(C)=CC(C)(C)N=2 | 0%
C=CCn1c(SCC(=O)NCC(=O)OCC)nnc1-c1cccc(OC)c1 | 4%
CCOC(=O)CC(C#N)c1c[nH]c2ccccc12 (stereo not drawn) | -1%
O=c1cc[nH]c2cc(C(F)(F)F)ccc12 | ?
O=C1CN(C(=O)c2cnccn2)c2ccccc2N1 | -3%
Cc1noc(C(=O)NCc2cccnc2)c1Cl | 5%
O=S(=O)(Nc1nccs1)c1ccc(NS(=O)(=O)c2cccs2)cc1 | 1%
O=C(CSc1nnc(-c2ccccn2)n1Cc1ccccc1)NC1CCCC1 | 3%

Structural class: those above with a CF3 group
SMILES | HSD17B inhib
O=C(c1cc2nc(-c3ccccc3)cc(C(F)(F)F)n2n1)N1CCCC1 | 4%
CCN1CCN(Cc2c(O)ccc3c(=O)c(-c4ccc(OC)c(OC)c4)c(C(F)(F)F)oc23)CC1 | -1%
O=C(O)c1cnn2c1NC(c1ccc(F)cc1)CC2C(F)(F)F (stereo not drawn) | -4%
O=S(=O)(c1cc(C(F)(F)F)ccc1Cl)N1CCCCCC1 | -23%
CCc1nc2nc(C)cc(Nc3cccc(C(F)(F)F)c3)n2n1 | -13%
O=c1cc[nH]c2cc(C(F)(F)F)ccc12 | ?

No new results follow: entries from further up.
SMILES | HSD17B inhib
Cc1noc(C(=O)NCc2cccnc2)c1Cl | 5%
O=S(=O)(Nc1nccs1)c1ccc(NS(=O)(=O)c2cccs2)cc1 | 1%
O=C(CSc1nnc(-c2ccccn2)n1Cc1ccccc1)NC1CCCC1 | 3%
